Screening data as filed in PubChem BioAssay.
STK33 kinase inh: inhibitors of human STK33 kinase; purified STK33, MBP phosphorylation, ADP-Glo luminescence; inhibition, % at 10 µM; 320,000 compounds, 0.073% hits; AID 2661;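 active means inhibition at or above 25%, using the most active replicate where run in duplicate; inactive means inhibition below 25%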
Target sequence (Q9BYT3 whole entry, looked up): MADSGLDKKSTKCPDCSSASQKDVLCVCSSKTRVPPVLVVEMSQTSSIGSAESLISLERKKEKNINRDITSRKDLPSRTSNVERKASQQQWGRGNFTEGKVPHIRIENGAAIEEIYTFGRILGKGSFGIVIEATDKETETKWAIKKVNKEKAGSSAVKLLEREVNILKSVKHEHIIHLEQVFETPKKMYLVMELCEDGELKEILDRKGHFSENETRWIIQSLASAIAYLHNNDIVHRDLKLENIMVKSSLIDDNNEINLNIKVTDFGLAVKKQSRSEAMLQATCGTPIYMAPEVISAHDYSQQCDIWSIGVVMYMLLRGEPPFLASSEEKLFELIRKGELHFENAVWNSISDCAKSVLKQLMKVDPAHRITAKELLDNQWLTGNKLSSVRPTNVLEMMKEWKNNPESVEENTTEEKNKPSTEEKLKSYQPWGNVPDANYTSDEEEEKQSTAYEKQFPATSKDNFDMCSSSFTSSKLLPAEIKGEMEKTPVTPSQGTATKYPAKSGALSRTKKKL
* = called active by the depositor.

Preview (4 entries):
STK33 kinase inh	molecule
1.1	CN(C)c1cccc(C(=O)N/N=C/c2ccccc2F)c1
-1.7	CCCC(=O)NC(=S)Nc1nc(-c2ccc(OC)cc2)cs1
-0.5	CC1CCN(c2c([N+](=O)[O-])nn(-c3ccc4c(c3)OCCO4)[n+]2[O-])CC1
-0.2	O=S(=O)(c1ccc(Cl)cc1)N1CCn2c1nc1ccccc12

The whole of this part (from the top)
STK33 kinase inh	molecule
1.1	CN(C)c1cccc(C(=O)N/N=C/c2ccccc2F)c1
-1.7	CCCC(=O)NC(=S)Nc1nc(-c2ccc(OC)cc2)cs1
-0.5	CC1CCN(c2c([N+](=O)[O-])nn(-c3ccc4c(c3)OCCO4)[n+]2[O-])CC1
-0.2	O=S(=O)(c1ccc(Cl)cc1)N1CCn2c1nc1ccccc12
-0.9	Cc1c(N=C2N=C(NC(=O)c3ccc(F)cc3)c3ccccc32)c(=O)n(-c2ccccc2)n1C
-3.3	COc1cccc(OC)c1C(=O)Nc1ccc(C(=O)c2ccncc2)cc1
-0.1	O=C1CN(C(=O)CN2CCCC2)C(c2ccccc2)c2cc(Br)ccc2N1 (configuration not stated)
-3.1	COCCCNc1nc2c(c(=O)[nH]c(=O)n2C)n1CCCc1ccccc1
-1.4	Cc1ccccc1NC(=O)c1ccc2nccnc2c1
-0.7	CCOC(=O)CSc1nc(C)nc2c1sc1nc(C)c(C(C)=O)c(-c3ccc(OC)cc3)c12
0.3	CCn1cc(C(=O)OCC(=O)Nc2cccc(C)c2)c(=O)c2ccc(C)nc21
-1.8	C=CCn1c(SCC(=O)c2ccc(OC)cc2)nnc1-c1cc2cccc(OC)c2o1
-0.1	COc1ccc(NS(=O)(=O)c2cc(NC(=O)c3ccco3)ccc2N2CCCC2)cc1
-1.8	CCN(CC)C(=O)CSc1nc2ccccc2c(=O)n1CCC(=O)N1CCN(c2ccccc2)CC1
0.3	COc1ccccc1N(CC(O)CN1C(C)CCCC1C)S(=O)(=O)c1ccccc1 (configuration not stated)
-2.1	COc1ccc(-n2nnnc2SCC(=O)Nc2nnc(C)s2)cc1
0.9	Cc1cccc(C)c1Nc1c(-c2ccc(N3CCOCC3)cc2)nc2cnccn12
0.5	Cc1c(C(=O)OC(C)C(C)C[N+](C)(C)C)oc2ccccc12 (configuration not stated)
-1.6	CCS(=O)(=O)N1CCN(Cc2ccncc2)CC1
-0.8	O=C1NC(=Nc2ccccc2)SC1(CO)CO
0.2	CC(C)(O)C#Cc1ccc(CN2CCN(C3CCCC3)C(CCO)C2)cc1 (configuration not stated)
-1.2	Cc1cccc(NC(=O)CSc2nnnn2C)n1
0.6	Cc1nc(NC(=O)c2ccc(Br)o2)sc1C
3.0	CCC(CC)c1nc2cc(OC)c(OC)cc2c(=O)o1
1.1	CC(C)(C)c1n[nH]c(=S)n(N)c1=O
-0.4	CC(CCc1ccccc1)NC(=O)c1cccs1 (configuration not stated)
0.6	O=C(Nc1cc(Cl)cc(Cl)c1)N1CCCC1
-2.7	COc1cccc(SCC2(O)CCN(C(=O)c3ccc(Cl)cc3)CC2)c1
0.7	CCN(CC)C(=O)c1c(-c2ccccc2)oc2ccc(OC)cc12
-1.1	COc1cc(C)c(C(=O)Oc2cc(C)c(C(=O)O)c(O)c2C)c(O)c1C(=O)O
0.5	COc1ccc(NC2=CC(c3ccccc3)N(c3ccc(OC)cc3)C2=O)cc1 (configuration not stated)
0.8	C=CC1=C2C=C(C3CC3)N(C3CC3)C=C2C(=O)C(C)(OC(=O)c2ccco2)C1=O (configuration not stated)
-0.8	COCCNC(=O)CN(c1ccc(C)cc1)S(=O)(=O)c1ccccc1
0.7	O=C(CN1C(=O)NC2(CCCC2)C1=O)OCCOc1ccc(Br)cc1
-1.9	O=C(c1ccc(-n2cncn2)c([N+](=O)[O-])c1)N1CCN(S(=O)(=O)c2ccc(F)c(F)c2)CC1
0.1	CCCNC(=O)Cn1c(=O)oc2cc(S(=O)(=O)N3CCCC3)ccc21
0.2	CCOc1cccc(C(=O)Nc2ccc3[nH]ncc3c2)c1
-1.3	COc1ccccc1CNC(=O)c1ccccc1C(=O)NC(CC(C)C)C(=O)NCc1ccccc1OC (configuration not stated)
0.5	COc1ccc(CCNC(=O)CSc2n[nH]c(C)c2[N+](=O)[O-])cc1OC
1.4	Cc1cccc(NC(=S)NCCN(C2CCCCC2)C2CCCC2)c1

Another view of part of the listing above.
SMILES	STK33 kinase inh
Cc1cccc(NC(=S)NCCN(C2CCCCC2)C2CCCC2)c1	1.4
CC(C)(C)c1n[nH]c(=S)n(N)c1=O	1.1

The listing continues.
STK33 kinase inh	molecule
-0.2	N#Cc1cccc(-n2nnnc2-c2ccc3c(c2)OCO3)c1
-0.5	Cc1cc(NC(=O)CSc2nncn2-c2ccccc2)no1
0.2	COc1ccc2c(CC(=O)NCc3cccs3)coc2c1
-0.2	COC(=O)c1ccc(CSc2nncn2N)cc1
-0.3	CCn1c(=NC(=O)c2ccc(S(=O)(=O)N3CCOCC3)cc2)sc2cccc(OC)c21
-0.5	C/C(CCc1ccc2c(c1)OCO2)=N\N=C(/N)SC1CC(=O)N(c2ccc(Cl)cc2)C1=O (configuration not stated)
0.1	CCOC(=O)CCSCC(=O)Nc1nnc(C)s1
-0.4	CN(C)/C=N/C(=S)Nc1ccccc1Cl
-0.8	CC1CCN(S(=O)(=O)c2ccc(NC(=O)CCN3C(=O)c4ccccc4C3=O)cc2)CC1
-1.4	COc1ccccc1NC(=O)Nc1nc2ccc(S(N)(=O)=O)cc2s1
-1.3	CC1CCN(S(=O)(=O)c2ccc3ncn(CC(=O)N(C)C4CCCCC4)c(=O)c3c2)CC1
-0.4	O=C1CSc2ccccc2N1Cc1ccccc1F
-0.5	COc1ccc(N2CCN(C(=O)C3COc4ccccc4O3)CC2)cc1 (configuration not stated)
0.5	CCC(=O)NC(=S)Nc1cccc(C(C)=O)c1
-1.3	CN(Cc1ccccc1)C(=O)CN1C(=O)NC(C)(c2ccc(Cl)cc2)C1=O (configuration not stated)
0.0	Nc1nc(O)c(Sc2ccccc2[N+](=O)[O-])c(=O)[nH]1
-1.6	COc1ccc(OC)c(-c2nc3ccccc3nc2-c2ccccc2)c1
-1.0	NC(=O)c1ccccc1N/C=C/C(=O)c1ccc(Cl)cc1
0.8	COc1ccc(/C=C(\NC(=O)c2ccco2)C(=O)Nc2ccc(C(C)=O)cc2)cc1
-0.2	O=C(Nc1ccc(S(=O)(=O)NC2CCCC2)cc1)c1cnccn1

Another view of 2 compounds above.
> COc1ccc(/C=C(\NC(=O)c2ccco2)C(=O)Nc2ccc(C(C)=O)cc2)cc1
  STK33 kinase inh = 0.8

> COc1ccccc1NC(=O)Nc1nc2ccc(S(N)(=O)=O)cc2s1
  STK33 kinase inh = -1.4

(continued)
STK33 kinase inh	molecule
-0.3	Cc1cccc(NS(=O)(=O)c2cccc(C(=O)N3CCCC(C(F)(F)F)C3)c2)c1 (configuration not stated)
-0.9	CC(NC(=O)c1ccc(Cl)cc1Cl)C(c1ccccc1)N1CCOCC1 (configuration not stated)
-1.4	Cc1cc(SCCOc2ccc(Br)cc2)nc(N)n1
-2.2	CN(C)CCN1C(=O)C(=O)/C(=C(/O)c2ccc(F)cc2)C1c1ccccc1 (configuration not stated)
-1.5	Cc1ccc(OC(C)C(=O)Nc2ccc(C)c(S(=O)(=O)Nc3ccc(C)cc3C)c2)cc1 (configuration not stated)
-0.5	CN1c2ccccc2Sc2cc(N)ccc21
-2.1	COc1ccc(-c2csc(NC(=O)C3COc4ccccc4O3)n2)cc1OC (configuration not stated)
-0.2	O=C(NC1CCCC1)C1CCC(CNS(=O)(=O)c2ccccc2)CC1 (configuration not stated)
-2.2	Cc1ccc(C23CCC(=O)N2C(C(=O)O)CS3)c(C)c1 (configuration not stated)
-0.4	COc1ccc(NC(=O)CCN2CCCCCC2)c(OC)c1
-0.3	CCS(=O)(=O)Nc1ccc(C2=NN(C(=S)Nc3ccccc3)C(c3ccco3)C2)cc1 (configuration not stated)
-1.7	CCOc1cccc(/C(O)=C2/C(=O)C(=O)N(CCN3CCOCC3)C2c2cccnc2)c1 (configuration not stated)
-0.5	COc1ccc(NC(=O)CC2C(=O)N(C)C(=S)N2CCc2ccc(F)cc2)cc1 (configuration not stated)
0.1	CCOC(=O)Nc1ccc(NS(=O)(=O)c2ccc(C)cc2)cc1
0.3	CCCCCCN(C(=O)CCCCCN1C(=O)NC(c2ccc([N+](=O)[O-])cc2)C(C(=O)OCc2ccccc2)=C1C)C(C(=O)NCCCC)c1ccc(OCC(=O)OC)c(C(=O)OC)c1 (configuration not stated)
-1.3	COc1cc(/C=C2\C(=O)N(c3ccc(S(N)(=O)=O)cc3)N=C2C)ccc1OC(=O)c1ccco1
-0.6	CC1(C(=O)Nc2cccc3ccccc23)CC1(Br)Br (configuration not stated)
-2.3	CCCN1CNC(=S)N(c2ccccc2OC)C1
0.1	CC(C)(C)c1ccc(C(=O)Nc2ncn[nH]2)cc1
-0.6	O=[N+]([O-])c1cccc(-c2ccc(/C=N/NC(=S)Nc3cccc(F)c3)o2)c1
-1.7	COc1ccc(NC(=O)CN(C)C(=O)c2cc(-c3ccncc3)nc3ccccc23)cc1
1.2	Cc1ccc(NC(=O)c2ccc(OC(=O)C(C)Oc3ccc(Cl)cc3C)cc2)cc1 (configuration not stated)
-0.7	COCC1CCCN(Cc2cn(-c3ccccc3)nc2-c2ccc3c(c2)OCO3)C1 (configuration not stated)
0.9	COc1ccc(N/C(N)=N/c2nc(C)c(Cc3ccccc3)c(=O)[nH]2)cc1
1.0	O=C(/C=C/c1c(Cl)nc2ccccn12)N1CCN(c2ccc(F)cc2)CC1
-0.6	Cc1ccc(NC(=O)/C(C#N)=C/c2ccccc2C(F)(F)F)cc1
-1.8	O=C(CSCc1ccccc1)N1CCN(S(=O)(=O)c2ccc(F)cc2)CC1
0.0	C#CCOCCOCCOCCNc1nc(N2CCN(C(=O)CCCCCCCCCCNC(=O)Cn3cc(C[C@@H](C)O)nn3)CC2)nc(N2CCN(C(=O)CCCCCCCCCCNC(=O)Cn3cc(C[C@@H](C)O)nn3)CC2)n1
0.1	O=C(c1ccccc1Cl)N1CCC(O)(c2cccnc2)CC1
-0.7	Cc1cccc(NC(=O)CCc2ccccc2)c1C
0.1	CN1CCN(CC(=O)Nc2ccc(OC(F)(F)F)cc2)CC1
-3.6	COc1ccccc1NC(=O)CSc1nnc(CSc2nc(C)cc(C)n2)o1
-2.2	CC(C)CCCN1CCN=C1Nc1ccccc1
-0.3	CC(C)(C)C(=O)N1N=C(c2ccc(NS(C)(=O)=O)cc2)CC1c1cccs1 (configuration not stated)
0.2	CCOC(=O)c1c(CN2CCN(C)CC2)oc2ccc(O)cc12
0.7	COc1ccccc1CCNC(=O)c1ccc(Br)s1
-1.3	CC[n+]1cccc(-c2nc3ccccc3s2)c1
-2.6	CN(C)c1oc(-c2ccc(OCc3ccccc3)cc2)nc1C#N
-4.5	CCCCn1c(N)c(N(CCOC)C(=O)c2cc(-c3ccc(OC)cc3)nc3ccccc23)c(=O)[nH]c1=O
0.0	COc1ccc(S(=O)(=O)N2CCOCC2)cc1C(=O)N1CCCCCC1
-0.4	CCC1CCCCN1CCCNC(=O)CN1C(=O)COc2ccc(S(=O)(=O)N3CCC(C)CC3)cc21 (configuration not stated)
-1.4	CC(C)C(NC(=O)c1ccccc1F)C(=O)OCC(=O)c1ccc(F)cc1 (configuration not stated)
-0.4	CCCn1c(N)c(C(c2ccc(C(=O)OC)cc2)N2CCN(c3ccccc3)CC2)c(=O)[nH]c1=O (configuration not stated)
-0.2	COc1cccc(COc2nc3c(c(=O)n(C)c(=O)n3C)n2C)c1
0.8	Cc1cc(C(=O)Nc2ccc(S(=O)(=O)Nc3nccs3)cc2)c(C)o1
0.2	CC(NC(=O)c1ccc2nc[nH]c2c1)c1ccccc1 (configuration not stated)
0.8	O=c1oc2cc(OCc3c(F)cccc3Cl)ccc2cc1-c1ccccn1
-0.2	COc1ccc(CC(=O)NNC(=S)NC(=O)c2cccnc2)cc1
-0.9	COc1cc(S(=O)(=O)N2CCCCCC2)c(OC)cc1Br
-0.3	O=C(NCc1n[nH]c(=S)n1-c1ccc(F)cc1)c1ccco1
0.5	O=C(Nc1ccc(N2CCCC2)cc1)c1ccc(Cl)cc1Cl
-0.3	CC(=O)NC(=O)c1cnn(-c2ccccc2)c1N
-0.1	COc1ccc(Nc2nnc(SCC(=O)c3cc4ccccc4o3)s2)cc1
-1.1	COc1ccccc1N(CC(=O)NCCSc1ccccc1)S(=O)(=O)c1ccccc1
-0.1	CCC(C)[C@H](NC(=O)N1CCC(Cc2ccccc2)CC1)C(=O)O (some centres not stated)
-1.1	Cc1nn(C)c(C)c1/C=N/NC(=O)CCn1nc(C)c([N+](=O)[O-])c1C
-1.0	COc1ccccc1C(=O)NNC(=O)CCC(=O)NCc1ccccc1
0.4	O=C(Nc1cc(Cl)cc(Cl)c1)C(NCC1CCCO1)c1ccccc1 (configuration not stated)
-0.5	Cc1ccc2cc(C=C(C#N)C#N)c(N3CCCCC3)nc2c1
0.0	Cc1ccc(N2CCCn3c2cc(C)c(C#N)c3=O)cc1Cl

Copied from the list:
CC(C)C(NC(=O)c1ccccc1F)C(=O)OCC(=O)c1ccc(F)cc1 (configuration not stated) – STK33 kinase inh: -1.4
COc1ccccc1N(CC(=O)NCCSc1ccccc1)S(=O)(=O)c1ccccc1 – STK33 kinase inh: -1.1

Continued.
STK33 kinase inh	molecule
-1.1	CC1=C(C(=O)Nc2cc(C(=O)N3CCN(c4cccc(C)c4C)CC3)ccc2C)SCCO1
1.5	CCCC(c1nnnn1CC(=O)OCC)N(Cc1cc2c(C)cc(C)cc2[nH]c1=O)C1CCCC1 (configuration not stated)
-0.2	COc1cccc(CN(C)C(=O)Nc2cccc(C(F)(F)F)c2)c1OC
-2.3	COc1ccccc1NC(=O)N1CCN(C(=O)Nc2ccccc2OC)CC1
-0.9	CCC(=O)Nc1nnc(S(=O)(=O)N(CC)c2ccc(OC)cc2)s1

Not all compounds are listed; most or all hits stand in other tables.
